Screens as filed in PubChem.
PINK1 modulator = changes PINK1 expression | hit rate 0.2% among 410,000 | Potency, µM (highest dose often 76.6 µM), inactives show at the top dose activation (PINK1 increase), hits mostly activators | PINK1 immunofluorescence, high-content cytometry, 24 h; active = well fitted activation curve with a large enough effect; inconclusive = small, poorly fitted or top-dose-only effect; inactive = flat fitted curve, though single readings scatter; cell line not stated here;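 note: % of control where 0% means no effect; nearly all actives have a fitted effect of over 65% in size; a mitochondrial uncoupler was the plate control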
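Stable cell line, 250 cells/well, 12 h attachment; compounds pinned at 5 concentrations, 24 h; CCCP control. Fixed with nuclear dye, primary antibodies 12 h at 10 degrees C, secondary plus cell stain; laser-scanning cytometer read.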
ClpP mod = qHTS Assay for Activators of ClpP; ATP-dependent Clp protease proteolytic subunit (Bacillus subtilis (strain 168)), P80244; purified B. subtilis ClpP, FRET peptide cleavage, 20 min; Potency, µM (doses to about 57.5 µM), without a hit: top-dose activity change, negative = active; hit rate 1.9% among 340,000; AID 651965, 2013; active = well fitted falling curve with a large enough effect; inconclusive = small, poorly fitted or top-dose-only effect; inactive = no such curve, though single readings can be large or run the other way; note: the source files actives as falling curves though it sought activators and does not explain the sign; nearly all actives have a fitted effect of over 65% in size; many hits overshoot -100%
Target sequence (P80244 whole entry, looked up): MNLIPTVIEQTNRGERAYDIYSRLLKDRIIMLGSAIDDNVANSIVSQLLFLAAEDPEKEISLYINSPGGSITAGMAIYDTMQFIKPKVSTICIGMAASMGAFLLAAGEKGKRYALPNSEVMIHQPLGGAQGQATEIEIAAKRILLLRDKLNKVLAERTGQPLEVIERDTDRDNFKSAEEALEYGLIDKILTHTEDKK
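ClpP 10 microg/mL final, pH 8 Tris/KCl buffer with BSA, glycerol, Tween-20; compound pinned in; FRET-FV substrate; RT 20 min; Ex320/Em430; ΔFRET vs ADEP 5.8 microM, DMSO, no enzyme.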
Numbers without * were called inactive. Potency is the fitted concentration of half-maximal effect. Some of the compounds tested; rates above refer to the full screens.

`COc1ccccc1N1CCN(C(=O)c2cc3c(=O)n(Cc4cccs4)ccc3nc2C)CC1` gave PINK1 modulator 0.5% and ClpP mod inconclusive.
CCCC(=O)C1=C(c2ccc(C)c(C)c2)N(C(=O)CCC)n2c(CC)nnc2S1 was read as PINK1 modulator 0.5% and ClpP mod 1.3%.
Cc1cccc(C)c1OCc1cc(=O)n2c(-c3ccccc3)csc2n1 was read as PINK1 modulator 8.2% and ClpP mod -13%.
COc1ccc(-c2nc(CCNC(=O)c3c(F)cccc3Cl)cs2)cc1 was read as PINK1 modulator 0.4% and ClpP mod 4.4%.
CCC1CCCCN1C(=O)c1nn(-c2ccc(OC)cc2)c(=O)c2c1c1ccccc1n2C (stereo not given) was read as PINK1 modulator 3.2% and ClpP mod -4.0%.
For O=S1(=O)CC(N2CCCC2)CN1Cc1cn(Cc2ccccc2)nn1 (stereo not given) the results were PINK1 modulator -1.0% and ClpP mod -1.2%.
Cc1ccc(NC(=O)c2c(C)nc3sc(C(=O)Nc4ccc(F)cc4)c(N)c3c2-c2ccccc2Cl)c(C)c1 was read as PINK1 modulator 7.0% and ClpP mod 3.3%.
For COc1cccc(C(=O)NCC[N+](C)(C)C)c1 the results were PINK1 modulator -0.1% and ClpP mod 1.7%.
`CCc1cc2c(cc3c(=O)n(CC(=O)NC4CCCCC4)ncn32)s1` gave PINK1 modulator -0.2% and ClpP mod -9.4%.
For CCCCc1c(-c2ccccc2OC)ncn1CCc1ccc(Cl)cc1 the results were PINK1 modulator inconclusive and ClpP mod -2.8%.
CCC(Sc1ncccc1C(=O)Oc1ccccc1Cl)C(=O)Nc1ccccc1OC (stereo not given) was read as PINK1 modulator 0.1% and ClpP mod -2.3%.
Screening Cc1ccc(C)c(N2CCN(C(=O)Cn3ncc4ccsc4c3=O)CC2)c1 returned PINK1 modulator -0.1% and ClpP mod -0.9%.
Cc1ccccc1CNC(=O)CN1C(=O)CCCc2ccccc21 was read as PINK1 modulator 2.7% and ClpP mod -6.3%.
For CCOc1ccc(C(=O)c2cn(Cc3ccccc3OC)c3ccc(F)cc3c2=O)cc1 the results were PINK1 modulator 1.8% and ClpP mod -2.1%.
Screening O=C(c1ccc2c(c1)CCN2S(=O)(=O)c1ccccc1)N1CCN(c2cccc(Cl)c2)CC1 returned PINK1 modulator -0.7% and ClpP mod -0.4%.
Screening CCOC(=O)c1c(C)[nH]c(CCC(=O)NCc2ccc(CC)cc2)c1C returned PINK1 modulator 0.3% and ClpP mod -1.5%.
For CCc1cccc2c(-c3ccccc3)nc(SCC(=O)Nc3ccccc3)nc12 the results were PINK1 modulator 2.6% and ClpP mod -0.5%.
`CCC(C(=O)NCCc1ccccc1)n1nc(C)n2c(cc3sccc32)c1=O` (stereo not given) gave PINK1 modulator 1.9% and ClpP mod -13%.
For COc1ccc(CNC(=O)c2ccc3c(c2)CCN3S(=O)(=O)c2ccccc2)cc1 the results were PINK1 modulator 1.3% and ClpP mod -0.4%.
`CCCCC(=O)Nc1cc(-c2nc3ccccc3o2)ccc1OC` gave PINK1 modulator 5.2% and ClpP mod 4.4%.
Screening O=C(O)CCc1ccc(-c2ccc(Br)cc2)n1-c1ccccc1O returned PINK1 modulator 1.7% and ClpP mod -0.4%.
`Cc1ccc2nc(N(Cc3cccnc3)C(=O)COc3ccccc3)sc2c1` gave PINK1 modulator 21% and ClpP mod 1.8%.
`Clc1ccccc1CSc1nncn2c1cc1occc12` gave PINK1 modulator -1.1% and ClpP mod -12%.
`CS/C(=N\S(=O)(=O)c1ccc(F)cc1)c1ccccc1` gave PINK1 modulator -0.8% and ClpP mod 0.7%.
Screening CCC(Oc1ccccc1)C(=O)Nc1nnc(S(=O)(=O)N(CC)CC)s1 (stereo not given) returned PINK1 modulator 2.1% and ClpP mod -6.3%.
Screening O=C1NC[C@H](CCCCN2C[C@H](Cc3ccccc3)N(CCC3CCCCC3)C(=O)C2=O)N(CCC2CCCCC2)C1=O returned PINK1 modulator -1.4% and ClpP mod 0.4%.
`Cc1cccc(C)c1-n1nnnc1C1(C)CCC(=O)N1Cc1ccc(F)cc1` (stereo not given) gave PINK1 modulator 0.1% and ClpP mod -0.3%.
CCCCNC(=O)C[C@@H]1C[C@@]2(C(=O)OCC)CCCC=C2N(Cc2ccc3c(c2)OCO3)C1=O was read as PINK1 modulator 0.2% and ClpP mod 3.0%.
For O=C(NCc1ccc(F)cc1)c1ccc2nc(N3CCCCC3)sc2c1 the results were PINK1 modulator -0.1% and ClpP mod 35µM*.
Screening CCOc1ccc(C2C(C(N)=O)=C(C)Nc3nc(SCc4ccccc4)nn32)cc1 (stereo not given) returned PINK1 modulator 1.4% and ClpP mod -6.4%.

Entries listed so far with two or more sulfur atoms, in the order listed:
`CS/C(=N\S(=O)(=O)c1ccc(F)cc1)c1ccccc1` gave PINK1 modulator -0.8% and ClpP mod 0.7%.
Screening CCC(Oc1ccccc1)C(=O)Nc1nnc(S(=O)(=O)N(CC)CC)s1 (stereo not given) returned PINK1 modulator 2.1% and ClpP mod -6.3%.

Remaining list, next part
Screening COc1ccc(NC(=O)CSC2=Nc3ccccc3C3=NC(CC(=O)NCc4ccc5c(c4)OCO5)C(=O)N23)cc1 (stereo not given) returned PINK1 modulator 1.4% and ClpP mod -0.7%.
For CN(Cc1cn(Cc2ccccc2)nn1)C1CN(Cc2cn(Cc3ccccc3)nn2)S(=O)(=O)C1 (stereo not given) the results were PINK1 modulator -0.5% and ClpP mod 1.3%.
For Cc1cc(C)cc(Oc2coc3cc(OCC(=O)NC4CCCCC4)ccc3c2=O)c1 the results were PINK1 modulator 2.6% and ClpP mod -5.2%.
For CC(C)C[C@H]1CN(CCCC[C@@H]2CNC(=O)C(=O)N2CCc2ccccc2)C(=O)C(=O)N1CCc1ccccc1 the results were PINK1 modulator 0.1% and ClpP mod 0.8%.
For COC(=O)c1ccc(CSc2c(C(C)C)cnc3c2c(=O)n(C)c(=O)n3C)cc1 the results were PINK1 modulator 2.5% and ClpP mod -2.0%.
`O=C1c2ccccc2NC(c2ccccc2OCc2ccccc2)N1Cc1ccco1` (stereo not given) gave PINK1 modulator 0.8% and ClpP mod 4.2%.
Screening COc1ccc(-c2cc(C(F)(F)F)nc(SCC(=O)NCc3ccc(Cl)cc3)n2)cc1 returned PINK1 modulator 1.6% and ClpP mod 4.5%.
Screening CN(C(=O)c1ccc2c(c1)N(Cc1ccc(F)cc1)C(=O)c1ccccc1S2(=O)=O)C1CCCCC1 returned PINK1 modulator 0.1% and ClpP mod -0.8%.
O=C(CN1C(=O)C2(SCC(=O)N2c2ccccc2)c2ccccc21)NCc1ccccc1 (stereo not given) was read as PINK1 modulator -0.8% and ClpP mod 0.8%.
For COc1cc(OC)cc(-c2cc3nc(C)c(CCC(=O)Nc4ccc(F)c(Cl)c4)c(C)n3n2)c1 the results were PINK1 modulator 2.7% and ClpP mod -7.8%.
`Cc1cccc(C)c1NC(=O)C1c2ccccc2OCC(=O)N1CCc1c[nH]c2ccccc12` (stereo not given) gave PINK1 modulator -0.6% and ClpP mod -2.6%.
`ClC/C=C/C[n+]1ccccc1Cl` gave PINK1 modulator -0.1% and ClpP mod -7.7%.
`NC(=O)c1nsc(C(=O)N(CC(=O)NC2CCCCC2)Cc2ccc3c(c2)OCO3)c1N` gave PINK1 modulator -0.3% and ClpP mod -18%.
For CC(=O)Nc1ccc(S(=O)(=O)NCc2cccn2Cc2cccc(C)c2)cc1 the results were PINK1 modulator 2.0% and ClpP mod -1.0%.
`Oc1cc(O)c(/C=C/c2ccnc3ccccc23)c(O)c1` gave PINK1 modulator 0.3% and ClpP mod 0.2%.

A draw from above in order of length of the SMILES, low to high.
`Oc1cc(O)c(/C=C/c2ccnc3ccccc23)c(O)c1` gave PINK1 modulator 0.3% and ClpP mod 0.2%.
O=C(CN1C(=O)C2(SCC(=O)N2c2ccccc2)c2ccccc21)NCc1ccccc1 (stereo not given) was read as PINK1 modulator -0.8% and ClpP mod 0.8%.
`NC(=O)c1nsc(C(=O)N(CC(=O)NC2CCCCC2)Cc2ccc3c(c2)OCO3)c1N` gave PINK1 modulator -0.3% and ClpP mod -18%.
For COc1cc(OC)cc(-c2cc3nc(C)c(CCC(=O)Nc4ccc(F)c(Cl)c4)c(C)n3n2)c1 the results were PINK1 modulator 2.7% and ClpP mod -7.8%.

Next part.
For Cc1ccc(Nc2c(-c3ccc(O)cc3)nc3cccc(C)n23)cc1 the results were PINK1 modulator 7.4% and ClpP mod 4.6%.
`CC(C)(C)OC(=O)N1CCC(c2c(C(=O)NCCCN3CCc4ccccc4C3)cnn2-c2ccccc2)CC1` gave PINK1 modulator -1.4% and ClpP mod -1.2%.
Screening COc1ccc(OC)c(NC(=O)c2oc(=O)c3ccccc3c2-c2ccccc2)c1 returned PINK1 modulator 1.4% and ClpP mod -0.7%.
For O=C(CSCc1nc2cccnc2n1C1CCCCC1)NCc1cccc(Br)c1 the results were PINK1 modulator 0.0% and ClpP mod -1.2%.
Screening CCC(=O)N1c2ccccc2CC1C(=O)N1CCN(c2ccccc2F)CC1 (stereo not given) returned PINK1 modulator 0.3% and ClpP mod -0.7%.
`CCCc1c(-c2cccc(F)c2)ncn1Cc1ccccc1OC` gave PINK1 modulator 7.1% and ClpP mod -1.6%.
For O=C(c1ccc(F)cc1)N1CCC(c2nc(-c3ccc(S(=O)(=O)N4CCCC4)cc3)no2)CC1 the results were PINK1 modulator 1.2% and ClpP mod -0.6%.
Screening Cc1ccc(S(=O)(=O)c2nnn3c2nc(N2CCN(c4ccc(F)cc4)CC2)c2cc(Cl)ccc23)cc1C returned PINK1 modulator -1.1% and ClpP mod 0.3%.
For O=C(CCCCn1c(=O)c2ccccc2n(Cc2ccccc2F)c1=O)NCc1ccccc1Cl the results were PINK1 modulator 1.0% and ClpP mod -1.7%.
For O=C(Cn1ncc2c3ccccc3n(Cc3ccccc3)c2c1=O)N1CCCCCC1 the results were PINK1 modulator 0.7% and ClpP mod -20%.
Screening CCOC(=O)CC(NS(=O)(=O)c1cc(-c2cc(C)no2)ccc1C)c1ccc(C)cc1 (stereo not given) returned PINK1 modulator 0.8% and ClpP mod -4.2%.
Cc1ccc2c(c1)NC(=O)C(CC(=O)Nc1ccccc1Cl)O2 (stereo not given) was read as PINK1 modulator 0.0% and ClpP mod 0.7%.
Screening Cn1c(SCc2ccccc2F)nc2c([nH]c3ccccc32)c1=O returned PINK1 modulator 0.9% and ClpP mod -5.0%.
Screening CCOC(=O)c1cccc(NC(=O)CC2C(=O)N(c3ccc(OC)cc3)C(=O)N2C2CCCC2)c1 (stereo not given) returned PINK1 modulator 0.7% and ClpP mod 0.8%.
Cc1ccc(C)c(N2C(=O)N(Cc3cc(=O)n4ccccc4n3)c3ccccc3S2(=O)=O)c1 was read as PINK1 modulator 6.5% and ClpP mod 4.7%.
Screening Cc1oc(-c2cccc(Cl)c2)nc1CN1CCCC(C(=O)N2CCN(c3ccc(F)cc3)CC2)C1 (stereo not given) returned PINK1 modulator 2.1% and ClpP mod -3.6%.
O=C(CCCCCn1c(=O)[nH]c2ccccc2c1=O)NCc1ccccc1 was read as PINK1 modulator 0.0% and ClpP mod -12%.
Cn1c(=O)[nH]c(=O)c2c1nc1n2CCN1c1ccccc1 was read as PINK1 modulator 0.5% and ClpP mod -0.9%.
For O=C1NC[C@@H](CCCCN2CCN(CCc3ccc(O)cc3)C(=O)C2=O)N(Cc2ccccc2)C1=O the results were PINK1 modulator 2.1% and ClpP mod 0.0%.
Screening Cc1cc2ccccc2n1CCNC(=O)c1ccc(Br)cc1 returned PINK1 modulator 0.1% and ClpP mod 2.4%.
For O=C(Nc1cccc(-c2nc3ccccc3o2)c1)C(F)(F)F the results were PINK1 modulator -0.4% and ClpP mod -10%.
For CCOC(=O)c1c(C)oc2nc(C)nc(NCC3CCN(Cc4ccccc4C)CC3)c12 the results were PINK1 modulator -0.1% and ClpP mod 0.0%.
`CCOC(=O)c1ccc(NC(=O)c2c(NCc3ccc(OC)c(OC)c3OC)sc3c2CCC(C)C3)cc1` (stereo not given) gave PINK1 modulator 1.8% and ClpP mod -1.0%.
For C[C@@H](NC(=O)[C@@H]1CCCN1C(=O)[C@@H]1CCCN1)c1ccccc1 the results were PINK1 modulator -0.2% and ClpP mod 0.1%.
Screening Cc1ccc(Cn2c(CNC(=O)c3ccccc3Br)nc3cccnc32)cc1 returned PINK1 modulator -0.6% and ClpP mod -6.9%.
Screening COc1ccc(CNC(=O)CSCc2cnn(-c3ccccc3)c2-n2cccc2)cc1OC returned PINK1 modulator 0.0% and ClpP mod 0.1%.
CCc1ccc(CN(Cc2cn[nH]c2-c2ccc(OC)cc2)C(=O)Nc2ccc(C)c(F)c2)cc1 was read as PINK1 modulator inconclusive and ClpP mod 1.8%.
CCCc1cc(N2CCN(c3cccc(C)c3C)CC2)n2cnnc2n1 was read as PINK1 modulator -1.1% and ClpP mod -1.1%.
O=C1C(=O)N(C2CCN(C(=O)c3ccccc3Cl)CC2)CCN1Cc1ccc(F)cc1 was read as PINK1 modulator 0.6% and ClpP mod -0.8%.
Screening CCOc1ccc(N2CC(NC(=O)C3CCCC3)CC2=O)cc1 (stereo not given) returned PINK1 modulator 0.7% and ClpP mod -1.9%.
Screening COc1ccc(C2=Nn3c(nc4sc(C(=O)Nc5cccc(C)c5)c(C)c4c3=O)SC2)cc1 returned PINK1 modulator 0.9% and ClpP mod -2.5%.
